Bioassay records: PubChem, several laboratories
Env fusion inh: inhibitors of HIV-1 Env-driven cell-cell fusion, primary screen, HeLa-JRFL effector, CEM21 target cells, luciferase | 360,000 tested, 1.1% active | AID 651610, 2012 | inhibition, % at 12.3 µM;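 active = mean replicate inhibition score of at least 50 and every replicate individually at or above 50; inconclusive = only one of the two criteria met; inactive = mean below 50 and not all replicates reaching 50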;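 note: 0% = plate neutral controls and 100% = maraviroc near 300 nM; one replicate is shown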
Yeast UUG start: modulators of yeast start codon fidelity, primary screen, whole organism, S. cerevisiae, single point, plate reader. S. cerevisiae UUG-firefly luciferase reporter, luminescence/redox ratio. activity score, % at 18.7 µM. 350,000 tested, 0.13% active. AID 602363, 2012;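 active = replicate mean at a twofold rise or more, about +100% in these data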;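 note: firefly luciferase made from a UUG start codon reports start codon fidelity; reporter light over untreated wells divided by growth signal over untreated wells; some hits fall short of that in this replicate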
Rce1 inh: yeast Rce1p protease inhibitors, primary screen, biochemical, fluorescence, cell-free homogeneous. CAAX prenyl protease 2 (Saccharomyces cerevisiae (strain ATCC 204508 / S288c)), Q03530. yeast membranes, quenched prenylated peptide cleavage fluorescence. calls only. 290,000 tested, 0.27% active. AID 2563, 2010;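 active = fall in fluorescence gain of 50% or more versus controls, with final raw signal at or below 3038400; inconclusive = same 50% fall but final raw signal above 3038400; inactive = fall in fluorescence gain under 50%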;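 note: plate controls were neutral control wells for no effect and wells lacking membranes for full effect; tested at 10 µM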
PABP polyA inh: PABP poly(A) RNA binding inhibitors, primary screen, biochemical, fluorescence polarization, uHTS. inhibition, % at 35 µM. 290,000 tested, 1% active. AID 2014, 2009;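 active = 50% or more with normal probe brightness, or confirmed in later tests; inconclusive = above 50% with abnormal brightness, or retests that disagree; inactive = below 50% or failed in later tests; about a fifth of its hits are not listed in these tables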;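 note: calls also rest on retests at 20 µM and on dose response follow-up; controls were probe without protein and protein plus probe with vehicle; some compounds called inactive have numbers as strong as hits; many hits fall short of the cut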
Target sequence (P11940 whole entry, looked up): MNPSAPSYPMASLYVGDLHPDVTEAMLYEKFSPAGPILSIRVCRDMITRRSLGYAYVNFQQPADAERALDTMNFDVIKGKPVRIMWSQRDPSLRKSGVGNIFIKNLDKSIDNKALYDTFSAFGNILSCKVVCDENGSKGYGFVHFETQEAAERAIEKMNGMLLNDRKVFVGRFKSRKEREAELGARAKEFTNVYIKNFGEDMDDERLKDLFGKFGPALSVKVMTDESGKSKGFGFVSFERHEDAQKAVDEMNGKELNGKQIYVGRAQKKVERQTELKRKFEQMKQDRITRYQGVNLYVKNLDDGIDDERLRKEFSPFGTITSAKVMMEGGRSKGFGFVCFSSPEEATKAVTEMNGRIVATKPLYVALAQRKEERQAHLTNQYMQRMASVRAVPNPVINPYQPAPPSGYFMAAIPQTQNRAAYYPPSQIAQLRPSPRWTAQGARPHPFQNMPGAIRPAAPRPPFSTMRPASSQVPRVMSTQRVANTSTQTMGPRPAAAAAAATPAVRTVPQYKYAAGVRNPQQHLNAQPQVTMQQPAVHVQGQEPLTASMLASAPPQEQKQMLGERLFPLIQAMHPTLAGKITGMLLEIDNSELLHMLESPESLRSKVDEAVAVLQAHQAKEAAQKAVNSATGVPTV
CSC inhib: cancer stem cell viability inhibitors, primary screen, luminescence. cancer stem cell-like cells viability. inhibition, % at 7.5 µM. 300,000 tested, 1.1% active. AID 2717, 2010;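 active = mean at 75% or more and at least half the replicates too; inconclusive = mean and replicates disagree; tested in HMLE shEcad cells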;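 note: 0% = median of negative and 100% = median of positive control wells; the first replicate is given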
MT1-MMP act inh: blockers of MT1-MMP proenzyme processing, primary screen, HT1080 RFP-PRO-GFP cells, GFP/RFP fluorescence; GFP/RFP ratio fluorescence, overnight; percent of plate control window, DMSO zero; GFP/RFP ratio change, % at 20 µM; 360,000 tested, 0.061% active;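 active = GFP/RFP ratio change of at least 30% with cell ATP level not reduced by more than half and red fluorescence within 50% of control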; note: strong numbers were not always called active
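Test system: HT1080 RFP-PRO-GFP cells; Benchmarks: DMSO and RFP-L50D-GFP cell wells; Timing: cells overnight before dosing, compound overnight, 37 °C, 5% CO2; Compound: one 20 µM compound dose with 1% DMSO; Read-out: GFP/RFP fluorescence ratio.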
eIF4H inh: human eIF4H binding inhibitors, primary screen, translation initiation inhibitor project, biochemical, uHTS, fluorescence polarization | Eukaryotic translation initiation factor 4H (Homo sapiens), Q15056 | inhibition, % at 35 µM | 290,000 tested, 0.94% active | eIF4H fluorescence polarization binding assay;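 active = 50% or more with normal probe brightness, or confirmed in later tests; inconclusive = above 50% with abnormal brightness, or retests that disagree; inactive = below 50% or failed in later tests; about a fifth of its hits are not listed in these tables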;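 note: calls also rest on retests at 20 µM and on dose response follow-up; 0% = protein and probe with vehicle and 100% = probe without protein; strong numbers were not always called active; many hits fall short of the cut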
MT1-MMP act inh RFP: recorded beside MT1-MMP act inh, whose call it bears; RFP signal change, %; measured here: RFP expression control read;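 0 = vehicle wells; hits needed this value within 50% of zero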
Starred values were filed as active, the others as inactive; i = inactive; u = inconclusive; x = no result given; & = joins results of further samples. Only part of the results is shown, so the mix of outcomes need not match the whole.

No.	molecule	Env fusion inh	Yeast UUG start	Rce1 inh	PABP polyA inh	CSC inhib	MT1-MMP act inh	MT1-MMP act inh RFP	eIF4H inh
1	COc1ccc(N2C(=O)C3C4C=CC(CC4)C3C2=O)c([N+](=O)[O-])c1 (configuration not stated)	-37	-19	i	5	-6	0	-3	3
2	CCOc1ccc2nc(NC(NC(C)=O)(C(=O)OC)C(F)(F)F)sc2c1 (configuration not stated)	35	-13	i	5	-17	-8	0	-5
3	C/C(=N\NC(=O)c1c(Cl)c(C)nn1C)c1ccc(NC(=O)c2ccncc2)cc1	-40	x	i	6	-11	1	1	3
4	CCCN(CCC)CCNC(=O)CCC(=O)Nc1ccc2nc(N3CCOCC3)cc(C)c2c1	20	-14	i	1	0	7	5	10
5	CCOc1ccccc1C=Nc1ccccc1C(=O)Nc1ccccc1	11	x	i	-4	2	-2	-4	7
6	Cc1ccccc1NS(=O)(=O)c1csc(C(N)=O)c1	-3	-17	i	-6	3	-1	-4	-9
7	O=[N+]([O-])c1ccc(/C=N/n2c(CO)nc3ccccc32)s1	3	-11	i	3	0	-9	-4	-1
8	COC(=O)NCC12CC3CC(C1)CC(CNC(=O)OC)(C3)C2	1	-11	i	1	3	1	4	-1
9	CC1CCN(S(=O)(=O)c2cccc(C(=O)O)c2)CC1	20	-37	i	6	5	2	5	1
10	CC(=O)c1ccc(NC(=O)Nc2ccc3c(c2)nc(C)n3C)cc1	-37	x	i	-5	-6	3	-5	-10
11	CCn1c(C)nc2cc(C(=O)N/N=C/c3ccc(O)cc3)ccc21	4	x	i	-3	-24	12	9	-7
12	Cc1cc(-c2nnc(SCC(=O)c3ccc4c(c3)OCCO4)o2)no1	0	-23	i	-15	8	-1	-1	-2
13	COc1ccc(NC(=O)Nc2ccc(F)cc2)c(C)c1	-17	x	x	-6	-14	-1	-4	4
14	CCN(CC)c1cc(C)c2cc(NC(=O)c3ccccc3OC)ccc2n1	-39	11	i	-2	u	14	8	-6
15	NCc1csc(NC(=O)Nc2cccc(C(F)(F)F)c2)n1	-3	1	x	x	x	-6	-6	x
16	COc1ccc(C(=O)Nc2c(N)nc(SCC(=O)N3CCC(C)CC3)[nH]c2=O)cc1OC	-50	-14	i	-4	-7	-3	3	-8
17	Cc1cc(NC(=O)CSc2ccc3nnc(CCNC(=O)c4ccccc4)n3n2)no1	-5	x	i	-1	-17	-1	2	-9
18	O=C(Nc1ccc2c(c1)C(=O)NC2=O)c1cccc(C(F)(F)F)c1	9	-13	i	2	2	0	4	8
19	COc1ccc(C2C(C(=O)N3CCC(C(N)=O)CC3)CC(=O)N2c2ccc(OC)cc2)cc1 (configuration not stated)	-3	x	i	-11	-12	0	6	-11
20	Cc1n[nH]c(C)c1S(=O)(=O)N1CCCC(C(=O)NC2CCCCC2)C1 (configuration not stated)	0	-10	i	6	9	0	1	-4
21	c1ccc(NCCCNc2ccccc2)cc1	x	-1	i	4	x	7	5	-2
22	CC[C@@]1(C(=O)OC)N[C@H](CN(C)C(=O)c2ccc(C)cc2)[C@@H]2C(=O)N(Cc3ccccc3)C(=O)[C@@H]21	12	-20	x	x	x	0	3	x
23	O=C(Cc1ccccc1)N1CCN(C(=O)c2cccs2)CC1	x	-8	i	-5	-2	0	5	3
24	O=C(NCCS(=O)(=O)c1ccc(Cl)cc1)c1ccc(F)cc1	6	x	i	0	3	2	2	6
25	Cc1ccc(Oc2nnc(-c3ccccc3)c3ccccc23)cc1	x	-13	i	8	15	14	-3	-5
26	CN1CCn2cnc(C(=O)NCCCCCNC(=O)OC(C)(C)C)c2C1=O	19	7	x	x	x	-1	5	x
27	OCCNc1nc(OCC(F)(F)F)nc(N2CCN(C34CC5CC(CC(C5)C3)C4)CC2)n1	x	-15	i	-6	2	5	-1	-3
28	COc1ccc(/C(C)=N/Nc2ccc(C(=O)O)cc2)c(OC)c1	-45	x	i	-1	-8	0	2	11
29	CS(=O)(=O)c1ccc(Cl)c(NC(=O)COC(=O)COc2ccc3c(c2)CCC3)c1	17	x	i	x	-2	-1	3	x
30	Cn1cc(CNC(=O)Nc2ccc3c(c2)OCO3)cn1	-61	-13	i	-4	-9	4	4	-14
31	O=C1N(c2ccccc2)C2CS(=O)(=O)CC2N1c1ccc(Cl)c(Cl)c1 (configuration not stated)	x	-15	i	-1	-7	-1	-3	2
32	COc1ccc(-c2ccc(NC(=O)c3ccco3)cc2)nn1	23	-63	i	x	44	-1	-2	x
33	O=C(NCC1CCCCC1)c1ccc2nc([C@H]3C[C@H](O)[C@@H](CO)O3)[nH]c2c1	4	-4	x	x	x	2	5	x
34	Cc1ccc(C(=O)n2c(N)nc3ccccc32)cc1	-2	-76	i	1	12	7	1	1
35	CCC(Sc1ncccc1C(=O)OCCN1CCCC1=O)C(=O)NCc1ccco1 (configuration not stated)	-29	26	i	2	-8	-2	0	11
36	COc1ccc2c(-c3ccccc3)cc(SCC(=O)NC(N)=O)nc2c1	15	x	i	7	17	3	-3	2
37	CCOc1ccc(NC(=O)CC2C(=O)Nc3ccccc3N2C(=O)c2ccccc2)cc1 (configuration not stated)	-39	x	i	6	-13	2	-2	12
38	COc1ccccc1NC(=O)c1c([N+](=O)[O-])c(C(C)(C)C)nn1C	4	-2	i	-4	-3	7	-2	-2
39	Cn1c(=O)n(Cc2ccccc2Cl)c(=O)c2c1[nH]c(=S)n2C	-1	-16	i	10	7	4	6	-7
40	Cc1ccc(O)c(N=Nc2ccc(S(=O)(=O)N3CCOCC3)cc2)c1	9	-18	i	11	8	2	-5	-7
41	COc1ccc(-c2coc3cc4oc(=O)cc(-c5ccccc5)c4cc23)cc1F	45	x	i	2	-6	10	-1	-2
42	CC12CCC(C(=O)Nc3ccc(Br)cn3)(OC1=O)C2(C)C (configuration not stated)	10	-3	x	6	-16	5	-5	-1
43	COc1ccc(OC)c(C(O)c2ncc(-c3ccccc3OC)[nH]2)c1 (configuration not stated)	13	-6	x	x	x	5	4	x
44	COC(=O)CCSCC(=O)N1N=C(c2ccc(OC)cc2)CC1c1cccc(OC)c1OC (configuration not stated)	12	x	i	18	-5	-1	-1	-2
45	CC(C)C(=O)NC(c1cccc([N+](=O)[O-])c1)c1ccc2cccnc2c1O (configuration not stated)	25	-18	i	-2	100*	7	-6	15
46	CCCCN(CCCC)CC(O)COc1ccccc1C(=O)Nc1ccccc1 (configuration not stated)	8	-8	i	0	-16	3	-1	0
47	O=C(Nc1cccc(C(F)(F)F)c1)c1cc2c(s1)-c1ccccc1OC2	0	x	i	17	26	2	6	0
48	CS/C(N)=N/N=C/c1ccc([N+](=O)[O-])cc1	-179	-16	i	10	3	1	1	-5
49	Cn1c(=O)c2c(ncn2CCOc2cccc(Br)c2)n(C)c1=O	39	-15	i	11	28	-9	-16	-6
50	Cc1cccc(NC(=O)Nc2ccc(C#N)cc2)n1	33	-19	i	-8	11	-12	-7	-10
51	CCN(CC)C(=O)CC(c1cc(OC)c(OC)c(OC)c1)c1c(OC)cc(OC)c2ccc(=O)oc12 (configuration not stated)	-30	-10	i	9	-10	-7	-2	-2
52	Cn1c(=O)oc2cc(S(=O)(=O)Nc3ccccc3F)ccc21	0	-9	i	10	-20	5	7	-13
53	COc1cccc(C(=O)NCCC2=CCCCC2)c1OC	x	-11	i	5	-3	2	6	-4
54	CC(C)NS(=O)(=O)c1ccc(OCC(=O)Nc2ccc(F)cc2F)cc1	x	-7	i	6	-5	0	5	-13
55	COc1ccc(C#Cc2cnc3c(c2)C(=O)N([C@H](C)CO)C[C@@H](C)[C@H](CN(C)C(=O)CN(C)C)O3)cc1	-2	22&0&-2	x	x	x	2	4	x
56	CN1CCCC(C#CC(O)(c2ccccc2)c2ccccc2)C1 (configuration not stated)	-2	x	i	1	-18	-4	-4	-13
57	COc1ccc(C(=O)NCc2ccc(C)cc2)cc1S(=O)(=O)N1CCCC1	2	1	x	x	x	-2	-6	x
58	CCC[C@@H]1CCCC/C=C\CCCC(=O)OCCN1C(=O)OC(C)(C)C	28	14	x	x	57	-2	-6	x
59	CC1CCC(NC(=O)CN2C(=O)NC3(CCCCCC3)C2=O)CC1 (configuration not stated)	13	-11	x	x	0	0	3	x
60	O=C(O)c1cc(NC(=O)c2ccccc2[N+](=O)[O-])ccc1O	21	x	i	8	-9	2	2	1

Other compounds:
No.	molecule	Env fusion inh	Yeast UUG start	Rce1 inh	PABP polyA inh	CSC inhib	MT1-MMP act inh	MT1-MMP act inh RFP	eIF4H inh
61	CC1=C(C(=O)Nc2ccccc2)C(c2ccccc2[N+](=O)[O-])NC(=O)N1 (configuration not stated)	-21	-3	i	-2	0	-3	6	33
62	O=C(Nc1ccccc1)C1CCCN1C(=O)Nc1ccccc1[N+](=O)[O-] (configuration not stated)	7	x	i	-10	0	4	5	-1
63	CC1=NN2C(=N)/C(=C\c3cc(C)n(Cc4ccccc4)c3C)C(=O)N=C2S1	-12	1	i	0	6	3	3	1
64	CCCn1nnnc1NCc1ccccc1OCc1ccc(F)cc1	6	1	i	5	12	1	0	-2
65	N#Cc1ccc(S(=O)(=O)N2CCC(C(=O)N3CCN(Cc4ccc5c(c4)OCO5)CC3)CC2)cc1	x	-5	x	x	3	-8	-20	x
66	O=C(O)CCC(=O)N(Cc1ccco1)C1CC(=O)N(c2ccccc2)C1=O (configuration not stated)	1	-3	i	-3	4	4	7	-2
67	CC(=O)C1=C(C)NC(C)=C(C(C)=O)C1c1ccc(-c2ccccc2Cl)o1	x	-2	x	-5	x	-2	-2	-7
68	Cc1ccc(S(=O)(=O)N2CCCCC2)cc1C(=O)NCCCN1CCOCC1	-1	-9	i	8	-1	-1	2	38
69	Cn1nc(C(=O)OCC(=O)Nc2ccccc2OC(F)F)c2ccccc2c1=O	-2	-2	x	x	0	0	1	x
70	CCOC(=O)C1(Cc2cccc(Cl)c2)CCCN(C(=O)c2cc(C)n(C)n2)C1 (configuration not stated)	-9	0	i	-8	-11	3	4	-6
71	COc1ccc(NC(=O)NNS(=O)(=O)c2ccc(OC)c(OC)c2)c(OC)c1	0	-12	i	-2	-7	1	7	-4
72	COC(=O)c1sc(NC(=O)c2cc(-c3ccccc3)nc3ccccc23)c(C#N)c1C	x	-13	i	5	0	-25	-35	-12
73	Cc1cc(NS(=O)(=O)c2ccc(NC(=O)CSc3nnc(-c4ccco4)n3N)cc2)nc(C)n1	x	x	i	5	1	1	7	2
74	Cc1cccc(-n2nc3c(c2NC(=O)CCCl)CSC3)c1	-4	-19	i	5	-1	0	-1	-12
75	Cc1cccc2cc(CN(CCCN(C)C)C(=S)NCCc3ccccc3)c(=O)[nH]c12	-17	-13	i	-3	1	-7	-6	2
76	O=C1CSC(c2ccccn2)N1c1ccc(C(F)(F)F)cc1 (configuration not stated)	2	x	i	2	-1	2	-9	-7
77	Cc1cc(=O)[nH]c(SCC(=O)Nc2nc3ccccc3s2)n1	-2	x	i	-6	1	-1	7	-2
78	O=C(c1ccc(S(=O)(=O)Nc2ccccc2)cc1)N1CCOCC1	x	-12	i	6	-13	2	-3	1
